HNF4A DNA FP: change in binding of human HNF4A to DNA, primary screen, biochemical, fluorescence polarization, FITC-DNA | Hepatocyte nuclear factor 4-alpha (Homo sapiens), P41235 | activity change, % at 10 µM | hit rate 0.3% among 360,000 | 1 h; in the data active = activity change above about 30%, passing the limit was not always enough;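 note: controls were the assay level and a saturating level of protein; the project sought stronger binding though the title names inhibitors; some compounds called inactive have numbers as strong as hits; positive values seem to mean higher polarization but the record does not say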
Target sequence (P41235 whole entry, looked up): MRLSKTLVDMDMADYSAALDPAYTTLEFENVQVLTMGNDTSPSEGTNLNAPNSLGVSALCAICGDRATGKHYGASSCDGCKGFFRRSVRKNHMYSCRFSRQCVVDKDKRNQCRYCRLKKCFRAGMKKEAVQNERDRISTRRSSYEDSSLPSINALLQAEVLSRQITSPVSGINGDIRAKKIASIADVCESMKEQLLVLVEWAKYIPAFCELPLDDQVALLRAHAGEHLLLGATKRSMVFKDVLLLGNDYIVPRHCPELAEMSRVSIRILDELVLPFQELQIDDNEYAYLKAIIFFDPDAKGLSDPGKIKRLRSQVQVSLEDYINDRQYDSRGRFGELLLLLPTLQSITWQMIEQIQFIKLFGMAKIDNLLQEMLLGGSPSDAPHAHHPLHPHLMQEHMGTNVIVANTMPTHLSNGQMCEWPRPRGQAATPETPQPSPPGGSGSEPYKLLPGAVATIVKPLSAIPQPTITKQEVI
* hit, by the source's call.

SMILES | HNF4A DNA FP
CCN(CC)C(=O)C1=C(C)N(Cc2ccc(C(C)(C)C)cc2)C(=O)C(CC(=O)NCc2cccs2)C1 (stereo unspecified) | -7.2
Cc1c(P(=S)(c2ccccc2)c2ccccc2)[n+]2ccccc2n1CCc1ccccc1 | 3.6
COc1ccc(-c2ccc(CN3C(CC(C)C)C(=O)N(Cc4cn(Cc5ccco5)nn4)CCS3(=O)=O)cc2)cc1OC (stereo unspecified) | -1.0
C=CCn1c(-c2ccccn2)n[nH]c1=S | 0.9
O=C1OC(C(Cl)(Cl)Cl)Nc2ccccc21 (stereo unspecified) | 0.1
CC(C)(C)N1C(=O)c2ccccc2NC(=O)C1C(=O)NCCc1ccccc1F (stereo unspecified) | -2.2
OC(c1ccc(F)cc1)c1ncc(-c2cccc(C(F)(F)F)c2)[nH]1 (stereo unspecified) | -0.9
Cc1ccc(Nc2nc(NCC3CC3)nc3ccsc23)c(C)c1 | 1.6
CCCCC(=O)N(C)c1c(CC)nc2c(OCc3cc(Cl)cc(Cl)c3)cccn12 | 4.1
Cc1ccc(S(=O)(=O)N2CCC(=O)N([C@H](COCc3ccc(Cl)cc3)Cc3ccccc3)CC2)cc1 | -4.4
CC1=C(C(=O)N2CCOCC2)CC(CC(=O)NC2CC2)C(=O)N1CCC1=CCCCC1 (stereo unspecified) | 0.6
O=[N+]([O-])c1nccn1C1C=CC(O)C(CO)O1 (stereo unspecified) | -5.1
CC1(C(=O)Nc2ccc3nc[nH]c3c2)CCN1C(=O)C/C=C/c1ccccc1 (stereo unspecified) | -0.6
CCNC(=O)c1cc2c(c(-c3cccc(-c4cccc(C(=O)N(C)C)c4)c3)n1)[C@H](CCO)N(S(=O)C(C)(C)C)C2 (stereo partly specified) | 16
CCCCNC(=O)C1C(c2ccccc2)=Nc2ccccc2N1C(=O)c1ccc(C)cc1 (stereo unspecified) | -0.2
CCc1ccc2cc3c(cc2n1)C(=O)c1ccccc1-3 | 2.5
CN(C)c1ccc(-c2ccnc3c2CC(C)(C(=O)Nc2ccccc2)O3)cc1 (stereo unspecified) | -1.6
O=C(NC(c1ccccc1)c1ccsc1)C1CCN(Cc2ccc(Cl)c(Cl)c2)CC1 (stereo unspecified) | -1.8
CCOC(=O)[C@]12CCCC=C1N(Cc1ccc(Cl)cc1Cl)C(=O)[C@H](CC(=O)NCc1ccc(OC)c(OC)c1)C2 | 1.1
CCCCCNC(=O)C(c1ccc(C(F)(F)F)cc1)n1c(=O)c(-c2ccco2)nc2ccccc21 (stereo unspecified) | 32
CCOC(=O)[C@]12CCCC=C1N(Cc1ccco1)C(=O)[C@H](CC(=O)NCc1cccs1)C2 | -3.4
Cc1nc2ccc(C(=O)N3CCN(C(=O)c4ccco4)CC3)cn2c1N(C)C(=O)CCc1ccccc1 | 1.4
COCCCn1cc(CN2CC(N3CCCC3)CS2(=O)=O)nn1 (stereo unspecified) | -3.0
CCOC(=O)[C@]12CCCC=C1N(Cc1cccc3ccccc13)C(=O)[C@H](CC(=O)N1CCOCC1)C2 | -5.1
CC1=C(C(=O)N2CCCCCC2)CC(CC(=O)NCCN2CCOCC2)C(=O)N1Cc1ccc(C(C)(C)C)cc1 (stereo unspecified) | 3.1

An excerpt of these results, field by field.
> Cc1ccc(S(=O)(=O)N2CCC(=O)N([C@H](COCc3ccc(Cl)cc3)Cc3ccccc3)CC2)cc1
  HNF4A DNA FP: -4.4
> CC1=C(C(=O)N2CCOCC2)CC(CC(=O)NC2CC2)C(=O)N1CCC1=CCCCC1 (stereo unspecified)
  HNF4A DNA FP: 0.6

Four compounds picked at random from those above, as already listed:
SMILES | HNF4A DNA FP
COc1ccc(-c2ccc(CN3C(CC(C)C)C(=O)N(Cc4cn(Cc5ccco5)nn4)CCS3(=O)=O)cc2)cc1OC (stereo unspecified) | -1.0
CCN(CC)C(=O)C1=C(C)N(Cc2ccc(C(C)(C)C)cc2)C(=O)C(CC(=O)NCc2cccs2)C1 (stereo unspecified) | -7.2
Cc1ccc(S(=O)(=O)N2CCC(=O)N([C@H](COCc3ccc(Cl)cc3)Cc3ccccc3)CC2)cc1 | -4.4
O=C1OC(C(Cl)(Cl)Cl)Nc2ccccc21 (stereo unspecified) | 0.1

The listing continues:
SMILES | HNF4A DNA FP
C[C@@H]1CN([C@@H](C)CO)C(=O)c2cc(Br)cnc2O[C@H]1CN(C)C(=O)c1cccc(F)c1 | -2.6
C[C@@H]1CN([C@H](C)CO)C(=O)c2c(c3ccccc3n2C)-c2ccccc2CO[C@H]1CN(C)C(=O)Nc1ccccc1 | -1.3
CC(=O)Nc1cc(-c2ccc(C(=O)N3CCOCC3)cc2)cn2c(-c3ccc(C(C)=O)cc3)cnc12 | 5.5
CCc1nc2c(OCc3ccc(Cl)cc3)cccn2c1N(C=O)Cc1ccccc1 | 7.1
CC(C)(C)c1ccc(C(=O)N2CCC2(C)C(=O)Nc2cccc3ncccc23)cc1 (stereo unspecified) | -4.6
NC(Cc1ccccc1)c1csc(NC(=O)Nc2ccccc2Oc2ccccc2)n1 (stereo unspecified) | -4.1
CSCC[C@H](NC(=O)Cc1c(C)c2cc3c(C)c(C)oc3cc2oc1=O)C(=O)N[C@@H](C(=O)O)c1ccccc1 | 5.8
COCc1cccc(-c2csc(C(C)(O)c3cccc(OC)c3)n2)c1 (stereo unspecified) | 1.5
COC(=O)/C=C1\OCc2cc(C)ccc21 | 3.9
Cn1c(=O)c2cc(NC(=S)NC3CCCCC3)ccc2n1Cc1cccc(C(F)(F)F)c1 | -2.4
OCCCCCCNc1ccc(CCO)cc1 | 2.3
COc1cc(OC)cc(C2=Cc3ccccc3C(CC(=O)c3ccco3)N2c2ccc(-c3cncnc3)cc2)c1 (stereo unspecified) | 2.3
CCCCNC(=O)C(NC(=O)c1ccc(=O)[nH]c1)C(=O)c1ccccc1 (stereo unspecified) | 1.4
CCOc1ccccc1C(=O)NCCN1CCC(n2c(=O)[nH]c3ccccc32)CC1 | 0.2
CN1CCN(c2ncnc3c2ncn3[C@H]2CN(Cc3ccc(C(=O)O)cc3)C[C@@H](CO)O2)CC1 | 0.1
c1cn2c(-c3ccc(N4CCOCC4)cc3)cncc2n1 | 1.4
CCOc1ccc(-c2cc(C(=O)NCc3cc(OC)cc(OC)c3)[nH]n2)c(C)c1 | 3.5
COc1ccc(OC)c(NC(=O)COc2cc(O)c3c(c2)OC(C)(C)CC3=O)c1 | 2.5
COc1cc(-c2cnc3c(NC=O)cc(-c4cccc(NC(C)=O)c4)cn23)cc(OC)c1OC | 5.4
COCCc1ccc(OC2(C)CCN(Cc3cccc(OCOC)c3)C2)cc1 (stereo unspecified) | -9.2
CCC1(C)CC(C#N)(C#N)C(=O)NC1=O (stereo unspecified) | 0.6
Cc1cccc(C)c1C(O)c1ncc(-c2ccccc2Cl)[nH]1 (stereo unspecified) | 5.2
CCOC(=O)[C@]12CCCC=C1N(Cc1ccccc1)C(=O)[C@H](CC(=O)N1CCCC1)C2 | 3.0
Cc1nc2c(OCc3ccc(Cl)cc3)cccn2c1N(C)C(=O)CCC1CCCC1 | -0.8
CCCCNC(=O)C1(C)CCN1C(=O)c1ccncc1 (stereo unspecified) | -0.9
(continued)
SMILES | HNF4A DNA FP
COc1ccc(CN2C(=O)CCC2(C)c2nnnn2-c2ccc3c(c2)OCCO3)cc1OC (stereo unspecified) | -0.6
O=C(NC1CCCCC1)N(c1ccccc1)c1nnc(-c2cccc([N+](=O)[O-])c2)s1 | 2.8
COc1ccc(CCN2C(=O)COc3ccccc3C2C(=O)Nc2c(C)cccc2C)cc1OC (stereo unspecified) | -4.0
Cc1noc(C)c1S(=O)(=O)N(C)C[C@@H]1OCc2cnnn2CCCC(=O)N([C@@H](C)CO)C[C@H]1C | 2.9
O=C(NCC1CCCN1S(=O)(=O)c1cccs1)C(=O)Nc1ccccc1F (stereo unspecified) | -1.0
CC(C)(O)C#Cc1ccc(CNC[C@H]2O[C@@H](n3cnc4c(=O)[nH]c(N)nc43)[C@H](O)[C@@H]2O)s1 | -4.8
COCCCN1C(=O)C(CC(=O)NC2CCCC2)CC(C(=O)N(C(C)C)C(C)C)=C1C (stereo unspecified) | 8.0
CC(=O)NC(c1ccccc1)c1nc(-c2cnc3ccccc3c2)cs1 (stereo unspecified) | 4.9
COc1ccc(-c2nc3ccc(C)cn3c2Cc2ccccc2)cc1OC | 2.4
CCCNC(=O)C1(C)CCCN(Cc2cc3ccccc3o2)C1 (stereo unspecified) | -1.8
CCCNC(=O)C1(C)CCN(Cc2ccc(-c3ccccc3)o2)C1 (stereo unspecified) | 7.9
CCC(c1nnnn1-c1ccc2c(c1)OCCO2)N1CCN(c2ccc(C)cc2)CC1 (stereo unspecified) | 3.4
OCCN1CCN(c2ncnc3c2ncn3[C@H]2CN(Cc3ccc4c(c3)OCO4)C[C@@H](CO)O2)CC1 | 2.4
COc1ccc(CN2C(=O)C(CC(=O)NCCc3ccccn3)CC(C(=O)N3CCOCC3)=C2C)cc1 (stereo unspecified) | 1.7
COc1cccc(CNc2nc3cc(-c4ccccc4C)sc3c(=O)n2C)c1 | 0.7
Cc1ccc(CN2C(=O)CN(S(C)(=O)=O)CC2(C)C(=O)NC(C)C)cc1 (stereo unspecified) | 3.7
COCCNc1nc(Nc2ccc(C)cc2C)c2sccc2n1 | 3.6
OC(c1ccc(Cl)c(F)c1)c1ncc(-c2cccc(C(F)(F)F)c2)[nH]1 (stereo unspecified) | -1.9
CC(C)C[C@@H]1COc2cc(N3CC[C@H](O)C3)ccc2S(=O)(=O)N1 | -1.6
O=C1NC[C@@H](CCCCN2C[C@H](Cc3ccc(O)cc3)N(CCC3CCCCC3)C(=O)C2=O)N(CCC2CCCCC2)C1=O | 6.8
O=C(NCc1cccc(C(F)(F)F)c1)c1ccc2sc(COCCO)nc2c1 | 0.5
Cc1cc(Cl)ccc1-c1nc(NC(C)C)nc2ccsc12 | -2.8
CCNC(=O)C1(C)CCCN(C(=O)c2ccc3sccc3c2)C1 (stereo unspecified) | -2.6
COc1ccc(C(C)(O)c2nc(-c3csc4ccccc34)cs2)cc1 (stereo unspecified) | 2.6
O=S1(=O)CC(N2CC=CC2)CN1Cc1cn(Cc2cccc(C(F)(F)F)c2)nn1 (stereo unspecified) | 1.8
Remaining list, next part.
SMILES | HNF4A DNA FP
COc1cccc(C(=O)N2CCC2(C)C(=O)O)c1 (stereo unspecified) | -1.7
O=C(Nc1cccc(C(F)(F)F)c1)c1csc(COCCO)n1 | -0.8
CC(=O)Nc1ccc(C(=O)N2CCCC(c3cc(C(=O)NCc4cccnc4)no3)C2)cc1 (stereo unspecified) | -1.5
CC(=O)Nc1cncc(-c2ccc(CN(C)C)cc2)n1 | 2.0
CCNC(=O)C1CCCN(C(=O)c2ccc(N(C)C)cc2)CC1 (stereo unspecified) | -4.3
CC(C)Oc1cc(F)ccc1-c1cc(C(=O)Nc2ccccc2)[nH]n1 | 1.4
COc1ccc(Cc2c(-c3ccc(Cl)cc3)nc3cc(C)c(Br)c(C)n23)c(C)c1 | 3.5
COC(=O)/C=C1\OC(C2CC2)c2ccccc21 (stereo unspecified) | 4.4
Cc1cc(C(O)c2ncc(-c3cccc(F)c3)[nH]2)ccc1F (stereo unspecified) | 2.6
Cc1cc(NC(=O)c2ccc3sc([C@@H]4O[C@H](CO)[C@H](O)[C@H](O)[C@H]4O)nc3c2)no1 | -1.3
CC(=O)Nc1ccc(NC(=O)c2ccccc2Br)cc1 | -1.6
COc1ccc(Cl)cc1Cn1c(C)c(C(=O)NCc2ccc3c(c2)OCCO3)sc1=O | 0.7
O=C(NCC(F)(F)F)c1ccc2sc([C@H]3C[C@H](O)[C@@H](CO)O3)nc2c1 | 2.0
CC1(C(=O)NS(=O)(=O)c2ccccc2)CCN1C(=O)C1CCCCC1 (stereo unspecified) | -1.7
O=C(Nc1cccn2nc(COCCO)nc12)C(c1ccccc1)c1ccccc1 | 1.4
Cc1ccc(S(=O)(=O)N2C[C@H]3[C@H]4C(=O)N(C5CCCCC5)C(=O)[C@H]4CC(=O)[C@H]3[C@@H]2c2ccccc2F)cc1 | -3.4
Cc1noc(C)c1-c1ccc(C(=O)NCC2CC2)c2occc12 | -6.4
CC(C)N1CCC1(C)C(=O)Nc1cccc(C#N)c1 (stereo unspecified) | 2.5
Cc1cccc(C)c1-n1nnnc1C1(C)CCC(=O)N1CCOc1ccccc1 (stereo unspecified) | -1.9
Cc1noc(C)c1S(=O)(=O)NC(=O)C1(C)CCN1C(=O)Cc1ccc(Cl)cc1Cl (stereo unspecified) | 0.1
CC(C)C[C@@H]1COc2cc(N3CCSCC3)ccc2S(=O)(=O)N1 | 0.6
Cc1ccccc1S(=O)(=O)N(C)C[C@H]1OCc2cn(nn2)CCCC(=O)N([C@H](C)CO)C[C@@H]1C | 1.2
CC(=O)Nc1cccc(-c2csc(C(O)c3ccc(F)cc3)n2)c1 (stereo unspecified) | -0.9
CC(=O)C1=CCC(c2ccccc2)N(S(=O)(=O)c2ccc(C)cc2)C1 (stereo unspecified) | 0.9
CCOC(=O)C1=CCC(c2cc3ccc(OC)cc3n2C(=O)OC(C)(C)C)NC1 (stereo unspecified) | -0.1
O=C1NC[C@@H](CCCCN2C[C@H](Cc3ccc(O)cc3)N(CCc3ccc(O)cc3)C(=O)C2=O)N(CCc2ccc(O)cc2)C1=O | -1.1
O=C(/C=C/[C@H]1O[C@@H](n2ccc(=O)[nH]c2=O)[C@H](O)[C@@H]1O)NCCc1cccs1 | 1.9

An excerpt of these results, with each value named.
CC(C)N1CCC1(C)C(=O)Nc1cccc(C#N)c1 (stereo unspecified)
  HNF4A DNA FP = 2.5
CC(=O)Nc1ccc(C(=O)N2CCCC(c3cc(C(=O)NCc4cccnc4)no3)C2)cc1 (stereo unspecified)
  HNF4A DNA FP = -1.5

A stretch from further up:
SMILES | HNF4A DNA FP
CCN(CC)C(=O)C1=C(C)N(Cc2ccc(C(C)(C)C)cc2)C(=O)C(CC(=O)NCc2cccs2)C1 (stereo unspecified) | -7.2
Cc1c(P(=S)(c2ccccc2)c2ccccc2)[n+]2ccccc2n1CCc1ccccc1 | 3.6

Source: PubChem BioAssay (Sanford-Burnham Center for Chemical Genomics)

These rows are one share of the data; rates above refer to the full screens.
